Source: PubChem BioAssay
CtBP-E1A inh – blocks the CtBP interaction with E1A; actives 0.49% (n = 340,000); activity change, % (concentration not given with the values); AlphaScreen GST-E1A/His-CtBP binding, 1536-well; stronger effect = lower value; control for the full effect not named in the record; in the data active means activity change below about -65%; inconclusive means about -30% to -65%; inactive means above about -30%; also: % is scaled to controls: 0 for no effect and ±100 for the full control effect
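Protein mix (5X: 125 nM each GST-E1A, His-CtBP) was incubated with pinned compound 2 h at 37 deg C in dark, in 50 mM Tris pH 8.0 buffer with 300 mM NaCl. Glutathione donor and nickel acceptor beads followed; AlphaScreen signal read after 1 h.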
Six1-Eya2 inh – blocks human Six1 binding to Eya2. activity change, % (test concentration not listed). actives 0.56% (n = 360,000). AlphaScreen GST-Six1/His-Eya2 binding, biochemical; stronger effect = lower value; control for the full effect not named in the record. Q15475+O00167; in the data active = activity change below about -65%; inconclusive = about -30% to -65%; inactive = above about -30%; also: % is scaled to controls: 0 for no effect and ±100 for the full control effect; compound concentration not given in the record
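GST-Six1 + His-Eya2 (5X stock: 250/500 nM); Tris pH 8.0, 300 mM NaCl, 0.05% BSA, 0.02% Tween 20; GSH donor/Ni acceptor beads; 1 h 37 °C dark; AlphaScreen readout.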
TRPV1 PAM – human TRPV1 potentiation; Q8NER1; TRPV1-expressing cells, Fluo-8 calcium influx, capsaicin EC20 potentiation; host cell line not named in the record; control for the full effect not named in the record; potentiation, % at 8.33 µM; actives 0.02% (n = 320,000); active means potentiation above 80%; inconclusive means 30% to 80%; inactive means below 30%; also: 0% is about no effect
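TRPV1-expressing cells were cultured overnight at 35.5C and loaded with Fluo-8 calcium dye for 40 to 90 min at room temperature. After a 10 s baseline, compound was added and calcium influx was read kinetically for 3 min (ex 480/em 520 nm).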
TRPML1 blocker – human mucolipin-1 channel inhibition; Q9GZU1; TRPML1-inducible cells, Ca2+ dye fluorescence, FDSS; stronger effect = lower value; inhibition of EC80 agonist-evoked calcium signal; actives 0.02% (n = 390,000); activity change, negative = inhibition, % (concentration not given with the values); in the data active means activity change below about -50%; inconclusive means about -30% to -50%; inactive means above about -30%;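 also: stimulus is agonist 54-4 at its EC80 concentration; % is scaled to controls: 0 for no effect and ±100 for the full control effect; compound concentration not given in the record; the text of the record puts the active cut at -80%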
Target sequence (Q9GZU1 whole entry, looked up): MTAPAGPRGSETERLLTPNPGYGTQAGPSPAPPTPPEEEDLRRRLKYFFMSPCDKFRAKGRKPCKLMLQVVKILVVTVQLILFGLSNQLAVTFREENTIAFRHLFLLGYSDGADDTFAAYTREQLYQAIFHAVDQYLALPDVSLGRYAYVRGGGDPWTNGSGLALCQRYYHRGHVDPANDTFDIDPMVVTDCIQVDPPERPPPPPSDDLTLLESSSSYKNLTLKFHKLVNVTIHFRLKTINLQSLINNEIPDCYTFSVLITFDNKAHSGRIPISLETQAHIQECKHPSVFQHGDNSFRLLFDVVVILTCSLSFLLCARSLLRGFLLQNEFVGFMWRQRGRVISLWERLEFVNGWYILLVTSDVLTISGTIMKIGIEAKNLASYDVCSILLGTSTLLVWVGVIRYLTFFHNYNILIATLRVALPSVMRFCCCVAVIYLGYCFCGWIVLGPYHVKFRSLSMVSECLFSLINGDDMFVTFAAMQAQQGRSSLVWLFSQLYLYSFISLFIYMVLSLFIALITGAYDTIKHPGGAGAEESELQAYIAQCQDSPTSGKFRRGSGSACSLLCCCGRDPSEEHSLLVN
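TRPML1-DL cells, Tet-induced overnight (~16 h, 37 °C) at 1,500 cells/well, were loaded with Ca8 no-wash dye plus quencher for 45-90 min at room temperature. Compounds were pinned during FDSS kinetic reading; agonist 54-4 at EC80 (4 uM final) then added.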
D2 potentiator – potentiates the human D2 dopamine receptor allosterically. P14416. DiscoveRx D2 beta-arrestin cells, luminescence, 90 min; 100% = 57 uM dopamine signal. potentiation, % (concentration not given with the values). actives 0.23% (n = 360,000); active = potentiation of 50% or more; inconclusive = 30% to 50%; inactive = 30% or less;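 also: compound concentration not given in the record; tested on top of an EC20 dose of dopamine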
Target sequence (P14416 whole entry, looked up): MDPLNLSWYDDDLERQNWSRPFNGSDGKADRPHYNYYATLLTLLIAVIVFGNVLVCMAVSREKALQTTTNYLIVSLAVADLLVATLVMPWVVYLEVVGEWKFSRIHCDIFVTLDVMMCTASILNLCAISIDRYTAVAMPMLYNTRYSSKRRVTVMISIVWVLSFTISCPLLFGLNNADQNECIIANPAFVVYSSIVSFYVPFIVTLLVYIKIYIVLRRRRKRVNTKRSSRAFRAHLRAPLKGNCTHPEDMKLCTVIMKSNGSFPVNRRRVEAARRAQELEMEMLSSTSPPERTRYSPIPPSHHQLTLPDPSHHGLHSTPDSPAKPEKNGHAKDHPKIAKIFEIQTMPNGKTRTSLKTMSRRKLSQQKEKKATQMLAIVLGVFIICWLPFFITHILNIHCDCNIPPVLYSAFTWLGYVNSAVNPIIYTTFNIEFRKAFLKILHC
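D2 cells co-treated with compound plus 50 nM dopamine (EC20) for 90 min at 37 deg C to detect potentiation. Beta-arrestin recruitment was read as enzyme-fragment luminescence after 1 h at ambient temperature. Full response was set by 57 uM dopamine.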
TRPML1 ag – activates the human TRPML1 channel; AID 624414; TRPML1-expressing cells, Ca2+ dye fluorescence, FDSS; host cell line not named in the record; reference of the full effect not given here; Q9GZU1; activation, % (test concentration not listed); actives 0.12% (n = 410,000); in the data active = activation above about 50%; inconclusive = about 30% to 50%; inactive = below about 30%; also: 0% is about no effect; the text of the record puts the active cut at 80%
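TRPML1-DL cells, Tet-induced overnight (~16 h, 37 degrees C), loaded 45-90 min at room temperature with Ca8 no-wash calcium dye plus quencher. FDSS fluorescence: 10 s baseline, compound pin-transfer, 110 s agonist read, then EC80 54-4 (4uM final) and 110 s antagonist read.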
* hit, by the source's call; ? = inconclusive; . = no result given; & = joins results of further samples. Compounds were not picked by outcome; about 0.95% have a hit in one of these screens.

#1 Cc1ccccc1C(=O)N1CCN(c2ccc(NC(=O)c3cccnc3Cl)cc2)CC1
#2 Cc1ccc(C)c(NC(=O)C(OC(=O)c2cnc(C)cn2)c2ccccc2)c1 (centres undefined)
#3 CN(C)CC1CCCCC1OC(=O)/C=C/c1ccccc1 (centres undefined)
#4 Cc1oc(-c2cccc(Cl)c2)nc1CSc1nc2c(c(=O)[nH]1)CCC2
#5 O=C(NC1CCCC1)[C@@H]1CSC2c3ccccc3C(=O)N21 (some centres undefined)
#6 O=C(CCn1nnc2ccccc21)N1CCN(c2ccccc2)CC1
#7 Cc1c(N=Cc2ccncc2)c(=O)n(-c2ccccc2)n1C
#8 CCOc1ccccc1NC(=O)C(OC(=O)c1ccc(O)cc1)c1ccccc1 (centres undefined)

compound no.	1	2	3	4	5	6	7	8
CtBP-E1A inh	0	0	2	2	-8	-1	12	1
Six1-Eya2 inh	27	-3	-6	7	3	-2	6	-12
TRPV1 PAM	-15	5	-1	25	4	1	-15	13
TRPML1 blocker	-2	19	20	2	-7	-1	3	-13
D2 potentiator	0	-3	-6	-7	-11	-6	-6	-3
TRPML1 ag	0.3	0.0	-0.7	1.9	0.3	0.5	-0.4	1.4

#9 Cc1c(C(=O)N2CCN(Cc3ccc4c(c3)OCO4)CC2)sc2ncnc(N3CCN(c4ccccc4)CC3)c12
#10 NC(=O)c1ccc(NC(=O)CSc2nncn2-c2ccccc2)cc1
#11 O=C(NCCc1c[nH]c2ccccc12)/C(=C\c1cccnc1)NC(=O)c1cccs1
#12 N#C/C(=C\c1cccc(O)c1)C(=O)N1CCCCC1
#13 CCc1ccc2c(c1)C(=O)C[C@]1(CCC[C@H](C)C1)O2
#14 CC(C)(C)n1cnc2cc(NC(=O)c3cccs3)ccc21
#15 O=S(=O)(NC1=NCCCCC1)c1cc(F)ccc1F
#16 CN(C)/C=C1\NC(=S)N(c2ccc(Cl)cc2)C1=O

compound no.	9	10	11	12	13	14	15	16
CtBP-E1A inh	.	0	-6	-2	16	3	-1	-1
Six1-Eya2 inh	-1	1	2	5	19	1	9	-3
TRPV1 PAM	3	1	7	-1	-9	5	.	-2
TRPML1 blocker	3	?	6	1	40	-17	-9	14
D2 potentiator	0	-12	-14	3	-9	-11	-4	-4
TRPML1 ag	0.2	0.6	-0.1	0.2	0.2	0.2	0.3	-0.8

#17 Cc1cc(C)n(CCC(=O)N/N=C/c2ccc(O)cc2O)n1
#18 C=CCn1c(COc2cccc(C)c2)nnc1SCC(=O)c1c(N)n(C)c(=O)n(C)c1=O
#19 COc1ccccc1C(=O)N/C(=C\c1ccccc1)C(=O)NC(Cc1ccccc1)C(=O)O (centres undefined)
#20 COc1cc(SC)ccc1C(=O)NCCOc1c(C)cc(C)cc1C
#21 COc1cc(/C=C(\C#N)C(=O)c2c[nH]c3ccccc23)cc(OC)c1O
#22 c1ccc(CSc2ncnc3ccccc23)cc1
#23 COc1ccccc1N=C(C)C1=C(O)CC(c2ccccc2)CC1=O (centres undefined)
#24 CN(C)C(CNc1ncnc2ccccc12)c1c(F)cccc1Cl (centres undefined)

compound no.	17	18	19	20	21	22	23	24
CtBP-E1A inh	-69*	10	8	12	-8	18	0	6
Six1-Eya2 inh	-86*	2	4	1	-8	13	0	-1
TRPV1 PAM	0	.	?	-1	0	5	6	4
TRPML1 blocker	-1	-4	-12	7	-1	22	-6	1
D2 potentiator	2	-5	4	-9	-3	-7	-5	-12
TRPML1 ag	-1.0	-0.8	-0.6	0.8	15	2.4	-0.9	-0.5

Among those listed so far, 3 have an NH in an aromatic ring.
#4 Cc1oc(-c2cccc(Cl)c2)nc1CSc1nc2c(c(=O)[nH]1)CCC2
#11 O=C(NCCc1c[nH]c2ccccc12)/C(=C\c1cccnc1)NC(=O)c1cccs1
#21 COc1cc(/C=C(\C#N)C(=O)c2c[nH]c3ccccc23)cc(OC)c1O

compound no.	4	11	21
CtBP-E1A inh	2	-6	-8
Six1-Eya2 inh	7	2	-8
TRPV1 PAM	25	7	0
TRPML1 blocker	2	6	-1
D2 potentiator	-7	-14	-3
TRPML1 ag	1.9	-0.1	15

Copied from the list:
TRPML1 ag, entry 18 = -0.8
CtBP-E1A inh, entry 17 = -69*
D2 potentiator, entry 23 = -5
D2 potentiator, entry 22 = -7

Following part:
#25 C=CCn1c(=NC(=O)c2ccccc2[N+](=O)[O-])sc2cc(S(C)(=O)=O)ccc21
#26 O=C(Nc1ccc2nc3n(c(=O)c2c1)CCCCC3)C(=O)N1CCN(c2ccccc2F)CC1
#27 O=C(Cn1nnc2ccccc21)Nc1ccc(Cl)cn1
#28 O=C(Nc1ccc(Cl)cc1)Nc1cccnc1
#29 NCCCC[C@@H]1NC(=O)[C@H](CCC(=O)O)NC(=O)c2cc([N+](=O)[O-])cc(I)c2SC[C@@H](C(=O)NCC(N)=O)NC1=O
#30 Cc1ccnc(Nc2nc(-c3ccc(O)cc3)cs2)c1
#31 COC(=O)[C@@]12CCCCN1[C@H](c1ccc(-c3ccc(Cl)c(Cl)c3)cc1)[C@H]1C(=O)N(C)C(=O)[C@H]12
#32 Cc1ccc(C)c(N2CCN(C(=O)CCc3nc(-c4cccc(Br)c4)no3)CC2)c1

compound no.	25	26	27	28	29	30	31	32
CtBP-E1A inh	-2	3	5	-1	5	2	-26	6
Six1-Eya2 inh	3	1	8	2	10	-20	0	12
TRPV1 PAM	1	13	3	-4	5	23	.	.
TRPML1 blocker	29	-3	24	19	-23	-4	37	-3
D2 potentiator	71*	1	-3	0	-12	-5	-40	1
TRPML1 ag	1.4	-1.2	0.2	0.5	-0.3	1.4	-0.5	-0.8

#33 Cc1ccccc1CSc1nc(-c2ccccc2)cc(=O)[nH]1
#34 CCOc1ccc(NCC(=O)Nc2ccc(Cl)cc2C)cc1
#35 O=C(Cc1ccc(F)cc1)NC1CCS(=O)(=O)C1 (centres undefined)
#36 CN(C)S(=O)(=O)c1ccc(C(=O)Nc2ccc3c(c2)CCC3)cc1
#37 CC1(c2ccccc2)NC(=O)N(CC(=O)Nc2ccccc2N2CCCCC2)C1=O (centres undefined)
#38 CN1C(N)=NC(=O)/C1=C/c1ccc(OC(F)(F)F)cc1
#39 CSc1ccccc1NC(=O)CN(C)C(C)C(=O)Nc1ccc(C#N)cc1 (centres undefined)
#40 Cc1cc(C(=O)NC(Cc2c[nH]c3ccccc23)C(=O)O)c(C)o1 (centres undefined)

compound no.	33	34	35	36	37	38	39	40
CtBP-E1A inh	4	-12	0	.	0	.	0	2
Six1-Eya2 inh	10	-11	12	1	3	6	20	8
TRPV1 PAM	6	29	-5	-2	2	18	-21	-7
TRPML1 blocker	-6	7	-12	19	-7	6	-3	10
D2 potentiator	-8	-3	-3	-5	-5	-9	-24	-5
TRPML1 ag	-0.5	-0.3	-0.2	1.8	1.8	0.0	-0.3	-0.3

#41 CC(=O)Nc1ccc(-c2ccnc3c2CC(C)(C(=O)NC(C)C)O3)cc1 (centres undefined)
#42 CCN(C(=O)COC(=O)c1ccc(Br)o1)C1CCCCC1
#43 Nc1nc(N)c2[nH]cnc2n1
#44 C=CC(C)(C)c1cc2cc3ccoc3cc2oc1=O
#45 COc1cccc(CN2CCC2(C)C(=O)Nc2cccc3cccnc23)c1F (centres undefined)
#46 CC(=O)C1=C(C)NC(SCC(N)=O)=C(C#N)C1c1cccs1 (centres undefined)
#47 CC(=O)Nc1ccc(S(=O)(=O)NCc2ccncc2)cc1
#48 O=C(CN1C(=O)NC2(CCCCC2)C1=O)Nc1cc(C(F)(F)F)ccc1N1CCOCC1

compound no.	41	42	43	44	45	46	47	48
CtBP-E1A inh	4	6	?	-4	-24	5	0	4
Six1-Eya2 inh	0	6	?	17	5	4	6	11
TRPV1 PAM	.	-7	.	-17	.	-13	12	-3
TRPML1 blocker	.	-7	.	11	.	0	-27	-11
D2 potentiator	3	-4	-13	-24	-5	-18	-1	16
TRPML1 ag	-0.7	-0.7	.	-0.3	-0.8	-0.2	-0.3	1.4

#49 C=C1C(=O)[C@]23C[C@H]1CC[C@H]2[C@]1(C)[C@@H](OC(C)=O)CC[C@@](C)(C(=O)O)[C@H]1C[C@@H]3O
#50 O=C(CCSc1nc(-c2ccc3c(c2)OCO3)cc(C(F)(F)F)n1)NCc1ccccc1
#51 O=C(c1ccc2nc(Cc3cccc(Cl)c3)oc2c1)N1CCC[C@H]1CO
#52 O=C1[C@@H]2C(c3cccnc3)=NO[C@@H]2C(=O)N1c1ccc2ccccc2c1
#53 CCc1nnc(NC(=O)CSc2nc(-c3ccc(F)cc3)cc(-c3ccccc3)c2C#N)s1
#54 COc1ccc(CCNc2cc(C)nc3c(-c4ccccc4)c(C)nn23)cc1OC
#55 O=C(NCC(=O)N1CCN(c2ncc(C(F)(F)F)cc2Cl)CC1)c1ccc(Br)o1
#56 COc1cccc(N2CC(C(=O)Nc3nnc(SCc4cccnc4)s3)CC2=O)c1 (centres undefined)

compound no.	49	50	51	52	53	54	55	56
CtBP-E1A inh	3	4	3	3	.	-3	6	-7
Six1-Eya2 inh	-1	9	4	6	5	-1	-5	-18
TRPV1 PAM	.	4	28	.	2	-5	6	-8
TRPML1 blocker	23	-8	17	8	53	-4	21	1
D2 potentiator	-14	1	-28	-8	-6	7	14	-2
TRPML1 ag	0.2	-0.2	0.7	-0.4	0.7	0.8	1.0	0.6

#57 Cc1ccc(CNC(=O)C(=O)NCCC2CCCCN2S(=O)(=O)c2ccc(C)cc2)cc1 (centres undefined)
#58 CCC1CCCCN1CCCNC(=O)c1ccc2c(=O)n(Cc3ccc(OC)cc3)c(=O)[nH]c2c1 (centres undefined)
#59 CCCCN(CC)CCNC(=O)C1CCCN(S(=O)(=O)c2cccc3nsnc23)C1 (centres undefined)
#60 COCC(=O)Nc1ccc(OC)c(Cl)c1
#61 COc1cccc(C(=O)N(C)C(C)c2nc3ccccc3s2)c1 (centres undefined)
#62 O=c1[nH]nc(SCCS(=O)(=O)c2ccc(F)cc2)n1-c1ccc2c(c1)OCCO2
#63 O=C1CCC(=O)N1c1ccc(NCc2ccccc2Cl)c([N+](=O)[O-])c1
#64 O=C(O)c1ccc(C(=O)O)c(C(=O)c2ccccc2)c1
#65 CC1CCCCN1CC(=O)Nc1ccc(N2CCCCCC2)cc1 (centres undefined)
#66 CCC(=O)Nc1cc(-c2nn(C)c(=O)c3ccccc23)ccc1N1CCCCC1
#67 O=C(NC1CCCC1)C1CC(=O)N(c2ccc(F)c(Cl)c2)C1 (centres undefined)

compound no.	57	58	59	60	61	62	63	64	65	66	67
CtBP-E1A inh	2	-6	3	-6	-17	-5	-22	-2	-14	-8	3
Six1-Eya2 inh	8	-3	-2	4	-5	3	-16	5	?	1	1
TRPV1 PAM	-2	-3	11	10	-9	0	3	-8	-10	-11	7
TRPML1 blocker	6	26	-9&-3	-1	-4	-15	7	-2	-2	-6	-6
D2 potentiator	18	-11	-18	-7	0	-10	-17	-6	-10	2	-2
TRPML1 ag	-0.6	-0.3	-0.5&-0.8	-0.3	0.7	-0.5	-0.2	0.1	2.1	2.5	0.0
